GALR2 ag: activates the human galanin receptor 2 | actives 0.48% (n = 140,000) | GALR2-expressing cells, agonist activation read-out | AID 803 | activation, %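 (tested at 5 µM)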;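 active = above mean plus 3 SD of all compounds, about 5% in these data, not always enough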;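 also: 0% = vehicle buffer wells and 100% = reference agonist at full effect; tested in CHO reporter cells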
Target sequence (O43603 whole entry, looked up): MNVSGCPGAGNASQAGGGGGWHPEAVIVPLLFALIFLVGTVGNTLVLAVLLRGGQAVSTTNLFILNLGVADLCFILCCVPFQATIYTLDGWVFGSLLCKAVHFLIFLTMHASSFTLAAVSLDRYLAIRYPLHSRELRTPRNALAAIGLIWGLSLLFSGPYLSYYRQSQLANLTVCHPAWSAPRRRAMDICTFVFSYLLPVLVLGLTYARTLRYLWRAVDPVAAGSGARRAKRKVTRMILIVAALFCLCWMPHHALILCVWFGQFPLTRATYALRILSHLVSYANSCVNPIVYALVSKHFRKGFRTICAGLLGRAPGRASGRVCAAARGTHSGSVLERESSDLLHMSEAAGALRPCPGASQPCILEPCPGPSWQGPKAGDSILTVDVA
INS promoter inh: TRM-6 insulin promoter activity inhibition; inhibition, % at 2 µM; actives 0.9% (n = 130,000); TRM-6 cells (human fetal islet line), insulin promoter-eGFP reporter, imaging; reporter expression induced with tamoxifen;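 active = inhibition above the mean plus 3 SD, with well images judged a real hit on visual review, cut at about 60% in these data, passing the limit was not always enough; inconclusive = inhibition over the cutoff but images rejected on review; inactive = inhibition not above the cutoff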
PKD1 kinase inh: blocks activity of human protein kinase D1. actives 0.056% (n = 200,000). PKD1 kinase fluorescence polarization assay. AID 797. inhibition, %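 (about 10 µM by stock and volumes)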;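 active = inhibition of 50% or more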;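 also: controls were vehicle for no effect and a reference inhibitor for full effect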
RGS16-Gao HTS: modulates binding between human RGS16 and Galphao | actives 0.38% (n = 220,000) | O15492+P09471 | bead-based flow cytometry RGS16-Galphao binding, fluorescence; actives lie on both sides | AID 1441 | binding response (% of control), % at 10 µM;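 active = below 25% or above 175%, edge rows of some plates excepted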;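 also: Galphao activated by GDP with aluminum fluoride before binding; 100% = wells without compound and 0% = beads without RGS; some results beyond the cut were filed as inactive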
Target sequence (O15492 whole entry, looked up): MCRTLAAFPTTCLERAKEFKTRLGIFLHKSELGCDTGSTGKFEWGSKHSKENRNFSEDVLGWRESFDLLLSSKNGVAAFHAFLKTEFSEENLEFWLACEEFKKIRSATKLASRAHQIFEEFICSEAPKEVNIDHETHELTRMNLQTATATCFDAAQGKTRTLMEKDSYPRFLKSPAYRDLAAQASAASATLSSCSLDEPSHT
Target sequence (P09471 whole entry, looked up): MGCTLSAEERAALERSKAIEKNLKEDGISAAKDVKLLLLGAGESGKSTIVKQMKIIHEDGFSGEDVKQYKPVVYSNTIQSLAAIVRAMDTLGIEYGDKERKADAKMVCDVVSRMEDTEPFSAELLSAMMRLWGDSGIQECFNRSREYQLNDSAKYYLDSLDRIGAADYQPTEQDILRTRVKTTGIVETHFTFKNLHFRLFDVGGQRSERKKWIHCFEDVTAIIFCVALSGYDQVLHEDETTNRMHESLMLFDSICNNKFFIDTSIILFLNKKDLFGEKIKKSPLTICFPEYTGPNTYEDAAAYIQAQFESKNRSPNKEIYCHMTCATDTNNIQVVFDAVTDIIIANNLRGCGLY
HSV augment: increases HSV replication in cells; HSV replication augmentation in cells, fold increase; maximum fold increase; actives 0.005% (n = 220,000); AID 1956;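 active = peak rise of 1.5-fold or more in the series; inconclusive = self-fluorescent or not available for retest; tested in PC3 cells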;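 also: first round at 10 µM; read as green reporter fluorescence; hits show the peak of a series up to 25 µM; 1 = signal of infected wells without compound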
INS promoter inh cell count: further read-out of INS promoter inh, marked with its call; normalized cell count, %; measured here: cell count, toxicity; reference of the scale not given here;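 cells exposed to compound for 48 h; stained nuclei by imaging scaled within each plate; lower means fewer cells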
HSV augment primary fold: recorded beside HSV augment, whose call it bears; fold increase; compound at 10 µM; measured here: primary screen fold increase 10 uM; tested in PC3 cells;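 GFP signal in the first replicate; 1 = infected wells without compound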
* = called active by the depositor; i = inactive; u = inconclusive; x = no result given.

Values run as follows: RGS16-Gao HTS, HSV augment primary fold, INS promoter inh cell count, PKD1 kinase inh, GALR2 ag, INS promoter inh, HSV augment
Cc1ncc(CN2CCN(CCc3ccccc3)C(CCO)C2)s1 (centres undefined)
  103, 1, x, -7, x, x, i
O=C1CCCN1CCC12CC3CC(CC(C3)C1)C2
  105, 1.2, x, 11, x, x, i
Cc1cc(NC(=O)c2ccccc2F)n(C(C)(C)C)n1
  95, 1.1, x, x, x, x, i
Cc1cccc(S(=O)(=O)c2c(N)n(/N=C/c3ccco3)c3nc4ccccc4nc23)c1
  136, 1.1, x, -8, 54*, x, i
CNC(=S)N1N=C(c2ccc(C)cc2)CC1c1ccc(OC)cc1 (centres undefined)
  97, 0.98, 123, 9, -1.6, 33, i
CCc1ccc(C(=O)COc2ccc(NC(C)=O)cc2)cc1
  102, 0.93, 125, 6, -2.9, -33, i
CCO[C@@H]1OC(C(N)=O)=C[C@H](c2coc3ccccc3c2=O)[C@H]1CCCO
  98, 1.1, x, x, x, x, i
CC(=O)Nc1ccc(C(=O)CSc2nnc(-c3ccc(O)cc3)n2CC2CCCO2)cc1 (centres undefined)
  97, 0.94, 84, -2, -0.4, 0, i
O=C(N/N=C/c1ccc([N+](=O)[O-])o1)c1cc2c(ccc3ccccc32)o1
  98, 0.8, x, -3, x, x, i
Cc1cc(C)cc(NC(=S)NCC2CCCO2)c1 (centres undefined)
  101, 1.1, 108, 0, 0.2, -46, i
COc1ccc(CNc2nc3c(c(=O)[nH]c(=O)n3C)n2CCCc2ccccc2)cc1
  103, 0.91, 105, -8, -2.3, -3, i
CC(C)Cc1nnc(NC(=O)Nc2ccccc2)s1
  103, 0.93, 99, -1, x, 50, i
Cc1ccc(/C=C/c2nnc(-c3ccc(C)cc3)o2)cc1
  102, 0.63, x, -1, -1.0, x, i
CCOC(=O)Cn1c(=O)oc2cc(S(=O)(=O)NC3CCCc4ccccc43)ccc21 (centres undefined)
  108, 0.76, x, 4, -3.1, x, i
COc1ccc2nc(N=Nc3c(O)ccc4ccccc34)sc2c1
  141, 0.98, 68, 1, -2.9, 50, i

Next results
Values run as follows: RGS16-Gao HTS, HSV augment primary fold, INS promoter inh cell count, PKD1 kinase inh, GALR2 ag, INS promoter inh, HSV augment
CC(=O)Nc1cccc(-c2cnc3ccccc3n2)c1
  77, 1, 88, -3, -1.3, 3, i
COCC(=O)Nc1cc(OC)cc(OC)c1
  101, 1.1, 62, -4, 0.1, 43, i
Cc1cc(C(=O)N2CCN(c3ccccn3)CC2)c(C)o1
  102, 0.72, 72, 8, -2.6, -142, i
CS(=O)(=O)N1CCN(c2nc3ccc(Cl)cc3s2)CC1
  105, 0.96, x, x, x, x, i
c1ccc(Nc2c3c(nc4ncnn24)CCC3)cc1
  x, 0.83, x, -3, -0.8, x, i
COc1ccc(C=O)cc1OS(=O)(=O)c1ccc(NC(C)=O)cc1
  112, 0.75, 84, -6, 0.4, 17, i
N#CC(C#N)=C1C=C2C=C(N3CCOCC3)CCC2CC1 (centres undefined)
  130, x, 96, -10, x, i, u
O=C(CCNS(=O)(=O)c1cccc2nsnc12)NCCc1ccccc1
  103, 0.9, x, -13, -1.0, x, i
CN(C)CCCN(C(=O)c1ccco1)c1nc2c(F)cc(F)cc2s1
  108, 0.83, x, -5, x, x, i
CC(SC1CCCC1)C(=O)NC(C)(C#N)C(C)C (centres undefined)
  101, 0.8, 120, -7, -1.9, -11, i
COc1ncccc1C(=O)N1CCCC(C(=O)c2cc(F)ccc2F)C1 (centres undefined)
  106, 0.96, x, -4, x, x, i
Cc1c(Cl)cccc1Nc1nc(N)nc(CN2CCCCCC2)n1
  51, 0.91, 103, -12, -0.4, 30, i
N#Cc1ccccc1Sc1ccccc1C(=O)OCC(=O)NC12CC3CC(CC(C3)C1)C2
  99, 1, 131, 4, 0.0, -26, i
O=C1C(=O)N(c2ccccc2)C(c2ccccc2[N+](=O)[O-])/C1=C(\O)c1ccccc1 (centres undefined)
  96, 0.93, x, -8, x, x, i
C=CCc1cccc(CNc2nc3ccccc3n2C(C)C)c1O
  97, x, x, -6, -1.9, x, x

(further entries)
Values run as follows: RGS16-Gao HTS, HSV augment primary fold, INS promoter inh cell count, PKD1 kinase inh, GALR2 ag, INS promoter inh, HSV augment
CCNC(=O)CSc1nnc(-c2ccccc2Br)n1-c1cccc(C(F)(F)F)c1
  95, 1, 127, -13, -0.2, -19, i
Cc1cc2c(cc1C)C(c1ccccc1Br)CC(=O)N2 (centres undefined)
  104, 0.94, 177, 3, 21*, 24, i
Cn1c(SCC(=O)Nc2ncc(C(F)(F)F)cc2Cl)nnc1-c1ccc(Cl)cc1
  105, 0.98, 85, -6, 0.4, -40, i
O=C(O)Cn1nnnc1SCC(=O)Nc1ccc(OC(F)(F)F)cc1
  96, 1, 84, -5, -3.1, 64, i
CCN(CC)Cc1cc(NC2=NS(=O)(=O)c3ccccc32)ccc1OC(=O)c1ccccc1
  103, 1.1, 121, 6, -1.0, 43, i
CN1CCCC(OC(=O)c2cc(Cl)cc(Cl)c2)C1 (centres undefined)
  104, 1, x, -2, x, x, i
COc1cccc(N=Cc2nc(-c3ccccc3)oc2OC(C)=O)c1
  102, 0.93, x, x, x, x, i
COC(=O)C1=NNC2(c3ccc(C)cc3)C(=O)N(c3cccc(C)c3C)C(=O)C12 (centres undefined)
  104, 0.9, 103, -8, -2.4, -20, i
CCCN(CC(=O)Nc1ccc(F)c(F)c1F)Cc1cc(=O)n2ccsc2n1
  104, 0.92, 166, 1, x, -43, i
Cc1cc2nnc(SCC(=O)Nc3cccc(S(=O)(=O)N4CCOCC4)c3)n2c2ccccc12
  101, 0.87, x, -6, -0.8, x, i
CCOC(=O)c1cc2sc(C)cc2n1CC(=O)NCc1ccc(F)cc1
  104, 0.89, x, -1, -2.9, x, i
CCN(CC)c1ccc(/C=C2\C(=O)N(c3ccc([N+](=O)[O-])cc3)N=C2N2CCOCC2)cc1
  x, x, 66, -4, -2.8, -347, x
CC(=O)N1CCc2cc(Br)cc(S(=O)(=O)NCCCN3CCC(C)CC3)c21
  100, x, 142, -5, -1.7, 46, x
CCCC(=O)Nc1c2c(nn1-c1ccc(OC)cc1)CS(=O)(=O)C2
  103, 1, 62, -8, 1.1, -30, i
CC(=O)Nc1ccc(Sc2ccccc2C(=O)O)cc1
  103, 1.1, 89, 2, x, 49, i

New compounds follow:
Values run as follows: RGS16-Gao HTS, HSV augment primary fold, INS promoter inh cell count, PKD1 kinase inh, GALR2 ag, INS promoter inh, HSV augment
CS(=O)(=O)N1N=C(c2ccco2)CC1c1ccc(Br)cc1 (centres undefined)
  79, 1, 157, 12, -2.2, 21, i
O=S1(=O)Nc2c(ccc3cccnc23)-c2ccccc21
  82, 0.61, x, 9, 0.2, x, i
O=c1c2ccccc2nc(SCc2nc3ccccc3s2)n1CCCO
  98, 0.92, x, -3, 1.8, x, i
COCCN1CCn2c(nc3cc(Nc4nnc(C)c5ccccc45)ccc32)C1
  108, 1, x, x, x, x, i
Cn1cc(Br)c(-c2cccc(N3C(=O)CC(C)(C)CC3=O)c2)n1
  87, 0.94, x, x, x, x, i
COc1ccc(-c2noc(CCc3ccccc3)n2)cc1
  99, 0.9, x, 2, x, x, i
C(=N\Nc1nc2ccccc2[nH]1)/c1cccs1
  101, 0.79, 114, -1, -2.6, 3, i
O=C(O)c1ccc(NC(=S)N2CCCCC2)cc1
  102, 0.99, x, 2, x, x, i
c1ccc(CSc2ccc3nnc(-c4cccnc4)n3n2)cc1
  116, 0.91, 117, -1, -1.1, -6, i
S=C1NNC2(CC3CC2C2CCCC32)NN1 (centres undefined)
  96, 0.77, x, -5, x, x, i
CCOC(=O)C1CCCN(C/C=C/c2ccccc2[N+](=O)[O-])C1 (centres undefined)
  106, 1.1, x, -3, -2.7, x, i
Cc1c(NC(=O)CSc2nnnn2Cc2ccccc2)c(=O)n(-c2ccccc2)n1C
  102, 0.91, 128, 1, -2.5, -46, i
Cc1nnc(-c2ccccc2)o1
  110, 1.1, x, x, x, x, i
Cc1cccc(C)c1OCC(O)CN (centres undefined)
  95, 1, 137, 4, -2.3, 50, i
CCN(c1ccccc1)S(=O)(=O)c1ccc(OC)c(NC(=O)CNC)c1
  103, 0.84, 74, -1, x, 56, i

Remaining list, next part
Values run as follows: RGS16-Gao HTS, HSV augment primary fold, INS promoter inh cell count, PKD1 kinase inh, GALR2 ag, INS promoter inh, HSV augment
COc1ccc(S(N)(=O)=O)cc1C(N)=O
  133, 0.94, x, -11, x, x, i
COc1ccc(NC(=O)CCSc2ccc(F)cc2)cc1
  94, 0.94, x, 0, x, x, i
CCOC(=O)c1c(C)n(CC(O)CN(CC)CC)c2cc(Br)c(OC)cc12 (centres undefined)
  95, 0.82, 106, -10, x, 0, i
Cc1ccccc1Nc1cc(C)c2c(O)cccc2n1
  101, x, 105, -6, -1.8, 41, x
CC(=O)c1cc(-c2ccccc2)n(CCC(=O)NC2CCCCC2)c1C
  10, 1, 105, 4, -0.3, -16, i
CCOC(=O)c1ccccc1NC(=O)COc1cc(=O)n(CC)c2ccccc12
  99, 1.1, 96, -5, -1.4, -307, i
N/C(CSc1ccccn1)=N\OCc1c(Cl)cccc1Cl
  109, 1.5, x, x, x, x, i
COc1ccc(C(=O)Nn2c(SCC(=O)NC3CCCC3)nc3ccccc3c2=O)cc1
  102, 1.4, 75, 0, -0.9, 29, i
CC(C)(C)c1ccc(C(=O)Nc2nnc(Cc3c[nH]c4ccccc34)s2)cc1
  108, 0.94, 39, -2, -0.4, -100, i
COC(=O)c1c(NC(=O)CN2C(=O)NC(CCc3ccccc3)C2=O)sc2c1CCCCC2 (centres undefined)
  101, 0.82, 106, 1, -0.4, 45, i
Cc1cc2cc(CNC(=O)CCC(=O)O)ccc2n1C
  98, 0.89, x, 3, x, x, i
COC(=O)Cc1c(C)c2ccc(OC(=O)c3ccccc3)cc2oc1=O
  102, 0.86, 96, 3, 3.6, -8, i
Cc1cccc(NC(=O)Nc2cc(C)cc(C)n2)c1
  98, 1.2, 96, -2, x, 21, i
CCOC(=O)C1CCCN(C(=O)c2ccc(CS(=O)(=O)c3ccc(C)cc3)o2)C1 (centres undefined)
  180, 0.92, x, 9, -3.0, x, i
O=C(CN1CCN(c2ccc(F)cc2)CC1)c1ccc2c(c1)OCO2
  133, x, 82, 8, -1.5, 52, x

Following part:
Values run as follows: RGS16-Gao HTS, HSV augment primary fold, INS promoter inh cell count, PKD1 kinase inh, GALR2 ag, INS promoter inh, HSV augment
CCOc1ccc(/C(O)=C2/C(=O)C(=O)N(c3ncccn3)C2c2ccc(C)cc2)cc1 (centres undefined)
  98, 0.98, x, x, x, x, i
O=C(CN1CCN(c2ccccn2)CC1)Nc1cccc(C(F)(F)F)c1
  102, 0.97, 125, -10, -1.9, 3, i
CC(C)OC(=O)CSc1nnc(-c2ccccn2)n1-c1ccccc1
  107, 0.96, 127, 1, -2.9, -18, i
O=C(c1cccs1)N1CCN=C1SCc1ccccc1
  108, 0.83, 123, -1, -2.6, -52, i
OCCC1CN(Cc2cccc3nccnc23)CCN1C1CCCC1 (centres undefined)
  98, 1.1, x, -6, x, x, i
CN(C)S(=O)(=O)c1cccc(NC(=O)CNC2CCCCC2)c1
  106, 1, x, x, x, x, i
O=C(COc1ccc(F)cc1)N(CC1=CCS(=O)(=O)C1)c1ccccc1
  101, 0.95, 92, -8, -2.6, 14, i
CCOC(=O)/C=C1\NC2(CCCCC2)Cc2cc(OC)c(OC)cc21
  x, 0.96, 120, -3, -3.1, -37, i

In the list so far, these have a cyano group.
Values run as follows: RGS16-Gao HTS, HSV augment primary fold, INS promoter inh cell count, PKD1 kinase inh, GALR2 ag, INS promoter inh, HSV augment
N#CC(C#N)=C1C=C2C=C(N3CCOCC3)CCC2CC1 (centres undefined)
  130, x, 96, -10, x, i, u
CC(SC1CCCC1)C(=O)NC(C)(C#N)C(C)C (centres undefined)
  101, 0.8, 120, -7, -1.9, -11, i
N#Cc1ccccc1Sc1ccccc1C(=O)OCC(=O)NC12CC3CC(CC(C3)C1)C2
  99, 1, 131, 4, 0.0, -26, i

From PubChem
